UUG fidelity = modulators of yeast start codon fidelity, primary screen, whole organism, S. cerevisiae, single point, plate reader; activity score, % at 18.7 µM; actives 0.13% (n = 350,000); S. cerevisiae UUG-firefly luciferase reporter, luminescence/redox ratio;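 active = replicate mean at a twofold rise or more, about +100% in these data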;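 also: firefly luciferase made from a UUG start codon reports start codon fidelity; reporter light over untreated wells divided by growth signal over untreated wells; some hits fall short of that in this replicate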
PABP polyA inh = PABP poly(A) RNA binding inhibitors, primary screen, biochemical, fluorescence polarization, uHTS; inhibition, % at 35 µM; AID 2014, 2009; Polyadenylate-binding protein 1 (Homo sapiens), P11940; actives 1% (n = 290,000);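 active = 50% or more with normal probe brightness, or confirmed in later tests; inconclusive = above 50% with abnormal brightness, or retests that disagree; inactive = below 50% or failed in later tests; about a fifth of its hits are not listed in these tables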;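 also: calls also rest on retests at 20 µM and on dose response follow-up; controls were probe without protein and protein plus probe with vehicle; some compounds called inactive have numbers as strong as hits; many hits fall short of the cut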
Target sequence (P11940 whole entry, looked up): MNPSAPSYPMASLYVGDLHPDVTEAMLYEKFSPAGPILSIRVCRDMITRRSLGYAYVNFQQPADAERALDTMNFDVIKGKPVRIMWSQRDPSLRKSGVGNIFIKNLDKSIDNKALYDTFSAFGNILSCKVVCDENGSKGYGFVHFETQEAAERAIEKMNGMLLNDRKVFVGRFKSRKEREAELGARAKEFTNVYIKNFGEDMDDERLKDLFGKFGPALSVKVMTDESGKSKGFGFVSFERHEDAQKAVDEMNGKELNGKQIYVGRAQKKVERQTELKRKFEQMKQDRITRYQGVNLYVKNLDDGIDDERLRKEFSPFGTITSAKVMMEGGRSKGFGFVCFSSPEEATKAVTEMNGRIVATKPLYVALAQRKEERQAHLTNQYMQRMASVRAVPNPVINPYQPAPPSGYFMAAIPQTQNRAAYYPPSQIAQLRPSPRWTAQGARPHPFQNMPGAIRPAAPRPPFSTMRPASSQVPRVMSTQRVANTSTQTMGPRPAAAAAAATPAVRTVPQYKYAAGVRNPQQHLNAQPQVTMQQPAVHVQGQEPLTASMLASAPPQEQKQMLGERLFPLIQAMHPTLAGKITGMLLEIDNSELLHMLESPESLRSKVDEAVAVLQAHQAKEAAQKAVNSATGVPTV
Rce1 inh = yeast Rce1p protease inhibitors, primary screen, biochemical, fluorescence, cell-free homogeneous. CAAX prenyl protease 2 (Saccharomyces cerevisiae (strain ATCC 204508 / S288c)), Q03530. yeast membranes, quenched prenylated peptide cleavage fluorescence. calls only. actives 0.27% (n = 290,000). AID 2563, 2010;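 active = fall in fluorescence gain of 50% or more versus controls, with final raw signal at or below 3038400; inconclusive = same 50% fall but final raw signal above 3038400; inactive = fall in fluorescence gain under 50%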;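 also: plate controls were neutral control wells for no effect and wells lacking membranes for full effect; tested at 10 µM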
CSC inhib = cancer stem cell viability inhibitors, primary screen, luminescence; cancer stem cell-like cells viability; inhibition, % at 7.5 µM; actives 1.1% (n = 300,000); AID 2717, 2010;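 active = mean at 75% or more and at least half the replicates too; inconclusive = mean and replicates disagree; tested in HMLE shEcad cells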;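 also: 0% = median of negative and 100% = median of positive control wells; the first replicate is given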
MT1-MMP act inh = blockers of MT1-MMP proenzyme processing, primary screen, HT1080 RFP-PRO-GFP cells, GFP/RFP fluorescence; Matrix metalloproteinase-14 (Homo sapiens), P50281; GFP/RFP ratio fluorescence, overnight; percent of plate control window, DMSO zero; GFP/RFP ratio change, % at 20 µM; actives 0.061% (n = 360,000);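 active = GFP/RFP ratio change of at least 30% with cell ATP level not reduced by more than half and red fluorescence within 50% of control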; also: strong numbers were not always called active
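Assay system – RFP-PRO-GFP reporter HT1080 cells · Compound dosing – single dose of 20 µM compound, 1% DMSO final · Incubation – overnight compound exposure at 37 °C · Measure – GFP/RFP fluorescence ratio · Benchmarks – DMSO wells and RFP-L50D-GFP cells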
Env fusion inh = inhibitors of HIV-1 Env-driven cell-cell fusion, primary screen, HeLa-JRFL effector, CEM21 target cells, luciferase; actives 1.1% (n = 360,000); inhibition, % at 12.3 µM;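 active = mean replicate inhibition score of at least 50 and every replicate individually at or above 50; inconclusive = only one of the two criteria met; inactive = mean below 50 and not all replicates reaching 50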;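 also: 0% = plate neutral controls and 100% = maraviroc near 300 nM; one replicate is shown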
eIF4H inh = human eIF4H binding inhibitors, primary screen, translation initiation inhibitor project, biochemical, uHTS, fluorescence polarization | Eukaryotic translation initiation factor 4H (Homo sapiens), Q15056 | eIF4H fluorescence polarization binding assay | inhibition, % at 35 µM | actives 0.94% (n = 290,000);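 active = 50% or more with normal probe brightness, or confirmed in later tests; inconclusive = above 50% with abnormal brightness, or retests that disagree; inactive = below 50% or failed in later tests; about a fifth of its hits are not listed in these tables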;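 also: calls also rest on retests at 20 µM and on dose response follow-up; 0% = protein and probe with vehicle and 100% = probe without protein; strong numbers were not always called active; many hits fall short of the cut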
eIF4H inh retest = recorded beside eIF4H inh, whose call it bears; inhibition, %; compound at 20 µM; confirmation average;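 mean of two retest wells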
PABP polyA inh retest = recorded beside PABP polyA inh, whose call it bears; inhibition, %; compound at 20 µM; confirmation repeats;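 mean of two retest wells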
MT1-MMP act inh RFP = recorded beside MT1-MMP act inh, whose call it bears; RFP signal change, %; measured here: RFP expression control read;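 0 = vehicle wells; hits needed this value within 50% of zero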
* marks the source's active call; other numbers are inactive results; i = inactive; ? = inconclusive; / = no result given. A portion of the library; count on the stated rates, not on these rows.

SMILES	UUG fidelity	PABP polyA inh	Rce1 inh	CSC inhib	MT1-MMP act inh	MT1-MMP act inh RFP	Env fusion inh	eIF4H inh	others
Cc1ccc(S(=O)(=O)Nc2ccc3nc(N)sc3c2)cc1	-8	-6	i	4	6	-14	12	1
Nc1nonc1-c1noc(N2CCOCC2)n1	-17	0	i	-8	-1	1	/	0
NC(=O)NC(=O)C(c1ccccc1)N1CCN(S(=O)(=O)c2ccc(Br)s2)CC1 (stereo not drawn)	0	/	/	/	-4	-5	-1	/
S=C(NC1CC1)N1CCc2ccccc2C1	-21	16	i	5	-1	3	15	-4
Cc1ccc(/C=N/c2sc3c(c2C#N)CCC3)s1	-25	-9	i	-7	4	7	/	21
C/C(=N\NC(=S)Nc1c(C)cccc1C)c1ccc(OC(F)F)cc1	/	-1	i	31	1	-4	-7	-1
O=C1OC(C(=O)O)Cc2ccccc21 (stereo not drawn)	-14	-10	i	-13	2	4	/	-2
CC(C)CCN1CCN(CCCn2cccn2)CC1CCO (stereo not drawn)	/	2	i	-4	4	2	8	1
O=S(=O)(NCC(c1ccco1)N1CCN(c2ccccc2F)CC1)c1ccccc1 (stereo not drawn)	/	10	i	-7	9	-5	-19	8
CCCCN(C(=O)Cc1ccc(S(=O)(=O)N2CCOCC2)s1)c1ccccc1	-2	/	i	58	2	-4	2	/
N#C/C(=C\c1ccncc1)c1nc2ccccc2o1	-17	-5	i	-3	-4	5	-14	1
COc1ccccc1NC(=O)c1cc(S(=O)(=O)N2CCCCCC2)ccc1F	-12	1	i	17	0	-5	-5	-7
CCOC(=O)Cc1csc(SC(C)C(=O)Nc2ccc(NC(C)=O)cc2)n1 (stereo not drawn)	-6	-12	i	-11	-1	4	-131	-10
CCN1CCN(c2cc(C)c3cc(NC(=S)N4CCC5(CC4)OCCO5)ccc3n2)CC1	11	-3	i	15	-1	2	21	-5
O=C(CC(=O)NCc1cccnc1)NCc1cccnc1	-8	3	i	-6	2	-1	/	6
O=C(NCC1CCCO1)c1cc2c(s1)CCCC2 (stereo not drawn)	-11	/	/	14	0	0	-50	/
CCCCOc1ccc(CNC(=O)NS(=O)(=O)c2ccc(OCC)cc2)cc1	-16	8	i	1	0	2	12	4
Cc1ccc(S(=O)(=O)N2CCOCC2)cc1NC(=O)COC(=O)Cc1ccc(Cl)cc1	-3	/	/	-3	3	-2	/	/
COc1ccc(Cl)cc1C(=O)Nc1ccc(NC(C)=O)cc1	/	-6	i	8	2	-3	12	2
Cc1cccc(NC(=O)CCCN2C(=O)C(c3ccccc3)Oc3cccnc32)c1C (stereo not drawn)	/	-8	i	0	3	-1	4	5
COc1ccc(COC(=O)C2=C(C)NC(=O)NC2c2cc(Br)c(O)c(OC)c2)cc1 (stereo not drawn)	-16	-2	i	6	2	3	-6	5
COc1ccc(CNC(=O)c2ccc3c(c2)N(C)C(=O)CS3=O)cc1 (stereo not drawn)	-9	-6	i	1	-1	-1	16	-8
Cc1nc2ccc(NC(=O)c3ccc(Cl)c(S(=O)(=O)N(C)c4ccccc4)c3)cc2s1	-10	-4	i	28	-9	-35	74*	30
COc1cc(/C=C2/C(=O)N(c3ccc(Br)cc3)N=C2C)cc([N+](=O)[O-])c1O	/	12	i	-9	/	/	/	5
Cc1ccc(NC(=O)CSCC(=O)Nc2cc(Cl)ccc2N2CCOCC2)cc1	/	/	i	17	-2	-4	17	/
O=C1NN=C2CCCCCC12 (stereo not drawn)	-27	/	/	/	0	4	5	/
O=C(Cn1nc(-c2ccccc2F)ccc1=O)NCc1ccc2c(c1)OCO2	-10	-9	i	0	2	3	-24	-6
O=C(c1ccc(-c2cccc([N+](=O)[O-])c2)o1)N1CCN(c2ccc([N+](=O)[O-])cc2)CC1	-11	/	/	/	-3	-13	9	/
CCCCOC(=O)Nc1cc(OC)c(Cl)cc1OC	-2	4	i	/	4	7	-43	-11
O=C(Nc1ccc(C(=O)N2CCOCC2)cc1)Nc1cccc(Cl)c1	16	0	i	-4	-2	-7	15	3
CC(NC(=O)Cc1ccccc1)c1ccccc1 (stereo not drawn)	-14	17	i	-4	-1	-4	4	-7
COc1ccc(N/C(N)=N/c2nc(C)cc(C)n2)c(OC)c1	/	4	i	-13	1	-2	2	-8
CN(C)CCN(C)c1cc2c(c3c1ccn3C)C1CCC2O1 (stereo not drawn)	-15	/	/	/	-3	3	8	/
COc1cc(-c2nnc(SC(C)C(=O)Nc3c(C)n(C)n(-c4ccccc4)c3=O)o2)cc(OC)c1OC (stereo not drawn)	-6	48	i	3	9	7	-14	59	eIF4H inh retest=2;PABP polyA inh retest=11
CC(C)NS(=O)(=O)c1ccc(NC(=O)C(C)OC(=O)CCCOc2ccccc2)cc1 (stereo not drawn)	-7	/	/	/	4	1	-11	/
CCN(CC)CCNc1nc(-c2cccs2)c(CC(=O)O)s1	-3	-7	i	-7	-1	2	6	-4
Nn1c(SCC(=O)NC2CCCCCC2)nnc1-c1ccco1	-9	/	/	/	2	4	-13	/
O=C(CCCn1c(=O)[nH]c2cc(Cl)ccc2c1=O)NC1CCCCCCC1	-24	12	i	-7	2	-8	21	12
CCn1c(-c2ccc[nH]c2=O)nc2ccccc21	-3	-8	i	-5	2	2	10	-2
CC(C)C[C@H](NC(=O)OC(C)(C)C)C(=O)N1CCC(C(=O)N[C@@H](Cc2ccccc2)C(=O)O)CC1	/	0	/	-12	0	2	/	0
O=C(Nc1ccccc1[N+](=O)[O-])c1nc[nH]c1C(=O)NCCO	-3	0	i	-2	4	2	-199	-10
O=C(CCN1CCN(c2ccccc2F)CC1)Nc1ccc(F)cc1	-5	5	i	-8	0	-3	-15	-8
COc1cccc(-n2c(C)nn(CCOc3ccccc3)c2=O)c1	-9	-14	i	-8	2	-1	-13	-8
CSCCC(NC(=O)c1ccccc1)C(=O)N1CCCCCCC1 (stereo not drawn)	-4	/	/	-8	2	2	15	/
O=C(Nc1ccn(CCCNCc2ccc3[nH]ccc3c2)c(=O)n1)OCc1ccccc1	-13	/	/	/	-1	2	1	/
Cc1ccnc(NS(=O)(=O)c2ccc(NC(=O)CN3C(=O)c4ccccc4S3(=O)=O)cc2)n1	9	/	i	-9	3	4	0	/
O=[N+]([O-])c1ccc(Cl)c(C[n+]2cccc3ccccc32)c1	-8	44	i	-15	-65	1	12	?
COC(=O)c1ccccc1S(=O)(=O)N1CCC(C(=O)NC2CCCCC2C)CC1 (stereo not drawn)	4	/	/	-10	3	5	17	/

Some of these compounds in order of formula weight, rising:
SMILES	UUG fidelity	PABP polyA inh	Rce1 inh	CSC inhib	MT1-MMP act inh	MT1-MMP act inh RFP	Env fusion inh	eIF4H inh	others
CSCCC(NC(=O)c1ccccc1)C(=O)N1CCCCCCC1 (stereo not drawn)	-4	/	/	-8	2	2	15	/
O=C(CCCn1c(=O)[nH]c2cc(Cl)ccc2c1=O)NC1CCCCCCC1	-24	12	i	-7	2	-8	21	12
COC(=O)c1ccccc1S(=O)(=O)N1CCC(C(=O)NC2CCCCC2C)CC1 (stereo not drawn)	4	/	/	-10	3	5	17	/

(cont.)
SMILES	UUG fidelity	PABP polyA inh	Rce1 inh	CSC inhib	MT1-MMP act inh	MT1-MMP act inh RFP	Env fusion inh	eIF4H inh	others
COc1ccc(S(=O)(=O)N2CCCCC2C)cc1 (stereo not drawn)	1	-5	i	-16	-2	0	-2	16
C=CCn1c(C)cc(C(=O)Cn2ncc(Cl)c(Cl)c2=O)c1C	-10	-3	i	6	-12	-33	/	79	eIF4H inh retest=-6;PABP polyA inh retest=0
CCOc1ccc(-c2c(C)n([O-])c3c([n+]2=O)CCCCC3)cc1	-8	?	i	5	-1	-1	-9	-8
COc1ccc2nc(N(CCN(C)C)C(=O)c3ccc4ccccc4c3)sc2c1	-3	7	i	2	-1	5	18	0
C=CCNC(=O)C(=O)NCC1CCCN1CC (stereo not drawn)	/	14	i	-1	1	3	-3	12
CNC(=O)c1ccc(-c2sc3nc(N4CCOCC4)c4c(c3c2N)CCCC4)o1	-4	3	i	1	0	-8	-100	-1
CCOC(=O)N1CCN(C(=O)COc2ccc(S(=O)(=O)Nc3ccc(OCC)cc3)cc2)CC1	9	-13	i	-6	-9	-14	30	-2
CCCCC(=O)Nc1nc(C)c(-c2csc(Nc3ccc(Cl)cc3)n2)s1	-9	9	i	63	19	3	/	-8
O=C(NNC(=O)c1ccccc1Cl)c1ccccc1Cl	-13	5	i	-29	2	-1	-1	-4
Cc1cc(Cl)ccc1C(=O)C1CCCN(C(=O)c2cscn2)C1 (stereo not drawn)	1	-8	i	-6	1	-7	16	2
CCN1CCC(N2CCN(c3ccccc3OC)CC2)CC1	-15	-2	i	-16	2	4	1	2
O=C(Cc1cccs1)Nc1ccc(F)c(S(=O)(=O)N2CCOCC2)c1	-12	/	/	/	6	-1	-21	/

Overlap with the part before: 3 entries, then new ones.
SMILES	UUG fidelity	PABP polyA inh	Rce1 inh	CSC inhib	MT1-MMP act inh	MT1-MMP act inh RFP	Env fusion inh	eIF4H inh	others
Cc1cc(Cl)ccc1C(=O)C1CCCN(C(=O)c2cscn2)C1 (stereo not drawn)	1	-8	i	-6	1	-7	16	2
CCN1CCC(N2CCN(c3ccccc3OC)CC2)CC1	-15	-2	i	-16	2	4	1	2
O=C(Cc1cccs1)Nc1ccc(F)c(S(=O)(=O)N2CCOCC2)c1	-12	/	/	/	6	-1	-21	/
Cc1ccc(S(=O)(=O)N(C)CC(=O)Nc2ccc3c(c2)OCO3)cc1	-18	8	i	-1	5	7	14	78	eIF4H inh retest=5;PABP polyA inh retest=-9
CCC(C)(C)C1CCC2(CC1)NC(=O)N(CC(=O)N1CCN(C(=O)c3ccco3)CC1)C2=O (stereo not drawn)	5	/	/	-7	2	-3	/	/
O=C(CSc1nnc(Cn2nnc(-c3ccccc3)n2)n1-c1ccccc1)Nc1ccccc1	-13	-11	i	-3	-5	-3	10	-2
O=C(COc1ccccc1)Nc1ccccc1N1CCCCC1	-18	6	i	2	-7	3	/	6
